Bead autofluor: flagged as autofluorescent in microsphere protease counterscreen | compound autofluorescence counterscreen, microsphere flow cytometry; stronger effect = higher value | fluorescence intensity (no concentration beside the values) | 360,000 compounds, 3.1% hits | AID 624483;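 active = at least 3 SD above the mean of all compounds, about 16000 in these data; inconclusive = too few beads counted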;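 also: 100 nL of 1 mM stock went into each well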
Mtb hypoxia inh: PubChem AID 1159583 | M. tuberculosis hypoxia-regulated fluorescent reporter, fluorescence | fluorescence inhibition, % (test concentration not listed) | 300,000 compounds, 0.1% hits;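 active = 35 to 45% if threefold the growth effect, above 45% if 1.5-fold the growth effect; inactive = the rest, general growth blockers included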;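 also: wells of about 50 µL received 100 nL stock; 0% = vehicle wells and 100% = reference inhibitor wells; whole bacteria with a GFP reporter of the hypoxia response; strong numbers were not always called active; many hits fall short of the cut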
RN4220 kill: growth inhibition of S. aureus RN4220, primary screen, OD600. inhibition, % (concentration not given with the values). 16 h. 330,000 compounds, 0.33% hits. AID 1259311, 2017;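 active = z-score of -3 or lower and OD600 up to 0.18 on both plates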;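 also: plate controls were untreated cells for no effect and reference antibiotic for full effect; stock transfer was 100 nL into about 80 µL; one replicate is shown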
Sa ugtP lethal: growth inhibition of ugtP-null S. aureus, primary screen, RN4220 ugtP deletion, OD600; 16 h; some inactives read as strong as hits; growth inhibition, % (no concentration beside the values); 330,000 compounds, 0.54% hits; AID 1259309, 2017;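 active = z-score under -3 and OD600 up to 0.15 on both plates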;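 also: plate controls were untreated wells for no effect and antibiotic for full effect; wells of about 80 µL received 100 nL stock; the first replicate is given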
PrP UTR inh: inhibition of PrP 5' UTR reporter expression; 340,000 compounds, 0.35% hits; AID 488862, 2010; cell-based PrP 5' UTR mRNA reporter, plate reader; inhibition, % (no concentration beside the values);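 active = every replicate at 50% or more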;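 also: 0 = median of the neutral control wells; tested in H4 reporter cells; numbers are from one replicate; inactives centre near -14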
BJeLR viability: MLPCN primary cell-based screen for lethality selective to Ras in HRASV12 cells; inhibition, % (concentration not given with the values); BJeLR (HRASV12) viability, CellTiter-Glo ATP luminescence, 48 h; reference of the scale not given here; 300,000 compounds, 0.17% hits; AID 1554, 2009;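 active = replicate mean above 50%; inconclusive = above 50% but judged a plate artefact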;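 also: 50 nL library stock added to about 25 µL; numbers are from one replicate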
Mtb hypoxia inh growth: recorded beside Mtb hypoxia inh, whose call it bears; growth inhibition, %; measured here: M. tuberculosis growth (absorbance);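 0% = vehicle and 100% = reference antibiotic; read after six days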
* = called active by the depositor; ? = inconclusive; . = not tested or not shown.

SMILES	Bead autofluor	Mtb hypoxia inh	Mtb hypoxia inh growth	RN4220 kill	Sa ugtP lethal	PrP UTR inh	BJeLR viability
CCCCC(CCC(=O)O)(C(=O)OCC)c1csc(N)n1 (configuration not stated)	3195	-1	-6	7.1	4	4	18
O=C(NCC1CCCO1)c1cc(-c2ccncc2)nc2ccc(S(=O)(=O)N3CCOCC3)cc12 (configuration not stated)	3357	-4	3	17	6	-16	-5
COc1cc(Cl)ccc1OCc1cc(C(=O)N2CC[C@@H]3CCCC[C@H]3C2)no1	6599	10	8	-1.0	-16	-75	-13
CC(C)(C)c1ccc(S(=O)(=O)NCC(=O)N2CCCC2)cc1	4568	11	-6	7.2	11	-21	-12
CCOC(=O)CN(C(=O)Cn1nnc(-c2ccc(C)cc2)n1)C(CC)C(=O)NC1CCCC1 (configuration not stated)	22718*	-10	2	-3.6	-6	-19	-9
CCc1ccc(N(CC(=O)Nc2ccc(NC(C)=O)cc2)S(=O)(=O)c2ccccc2)cc1	2462	-2	1	-1.2	2	-69	13
Cc1[nH]c2ccc(-c3nnc(SCC(=O)NCc4ccco4)n3Cc3ccccc3)cc2c1C	2606	8	8	4.5	-6	4	-1
O=C(CO/N=C/c1ccc(OC(F)F)cc1)NCc1ccco1	3542	.	.	.	.	-7	-1
COc1ccc(C(=O)NN=C2CCS(=O)(=O)c3ccc(F)cc32)cc1OC	.	12	4	1.9	3	.	.
Cn1c(NCCCN2CCOCC2)nc2c1c(=O)n(Cc1ccc(Cl)c(Cl)c1)c(=O)n2C	5961	4	20	1.6	5	-20	-2
CCOc1ccccc1NC(=S)NC(=O)C1CCCCC1	5189	-1	7	-4.9	63	-6	-8
CN(C)c1nc(NCc2ccccc2)nc(Oc2ccc(=O)[nH]n2)n1	8601	10	7	3.7	-3	-23	-8
O=S(=O)(c1ccc(N2CCN(CCO)CC2)nc1)N1CCCCC1	4834	.	.	8.8	-1	-34	-1
Cc1nc(-c2ccc3c(c2)OCCO3)cs1	2601	-6	-5	4.9	-4	-55	2
O=C(NN=Cc1cccnc1)c1cccc(N2CCCC2=O)c1	.	7	5	1.3	8	.	.
O=C(Nc1nc2ccccc2s1)C1CCN(C(=O)c2ccco2)CC1	3968	16	3	-3.7	5	-33	-1
O=C(c1ccco1)N1CCN(c2cccc(Cl)c2)CC1	10442	.	.	12	6	-32	4
COc1ccc(NC(=O)c2cc(CC(C)C)on2)cc1OC	5483	11	8	-12	-4	-31	1
CC(CCc1ccco1)=NNC(=O)CCC(=O)Nc1ccc(Br)cc1	.	-5	0	3.5	-3	.	.
CS(=O)(=O)N1CCN(C(=N)N[N+](=O)[O-])CC1	4384	1	5	-0.3	-1	-9	7
Cc1ccc(-c2nc(CS(=O)CC(=O)NCCCN3CCN(Cc4ccccc4)CC3)c(C)o2)cc1 (configuration not stated)	4535	-6	-7	-2.2	4	-7	5
CC1CCC2(CC1)NC(=O)N(CC(=O)c1ccc3c(c1)OCO3)C2=O (configuration not stated)	?	7	0	3.7	13	-16	-4
COc1cc(/C(=C/c2ccccc2)c2ccccc2)c2c(c1)oc1ccccc12	3839	.	.	.	.	-42	-14
Cn1cccc1Cc1nnc(SCC(=O)NCc2ccccc2)n1-c1ccc(F)cc1	5706	.	.	0.8	3	-36	-4
Cc1cc(C)c(C)c(S(=O)(=O)N2CCN(C(=S)NCC3CCCO3)CC2)c1C (configuration not stated)	4567	-3	7	-0.2	2	-12	-9
COc1ccc(C2OCC3(O)C(c4ccc(OC)c(OC)c4)OCC23)cc1OC (configuration not stated)	5501	.	.	4.4	-9	-34	-8
C/C(=N\O)C1CC(CC(=O)O)C1(C)C (configuration not stated)	4517	.	.	.	.	-16	2
Cc1cc(C)c(O)c(-c2n[nH]c3c2C(c2cccc(O)c2)N(Cc2ccco2)C3=O)c1 (configuration not stated)	4584	4	11	2.5	-16	-7	-9
CN1CCCC(C(O)(c2ccccc2)c2ccccc2)C1 (configuration not stated)	3380	-3	1	3.7	7	-5	-13
O=S(=O)(c1cccc(-c2cn3ccccc3n2)c1)N1CCCCC1	5858	-6	6	1.5	-1	-8	6

Compound profiles, from the list above. Order of values: Bead autofluor, Mtb hypoxia inh, Mtb hypoxia inh growth, RN4220 kill, Sa ugtP lethal, PrP UTR inh, BJeLR viability
Shown for Cc1cc(C)c(C)c(S(=O)(=O)N2CCN(C(=S)NCC3CCCO3)CC2)c1C (configuration not stated) : 4567, -3, 7, -0.2, 2, -12, -9
Shown for O=S(=O)(c1cccc(-c2cn3ccccc3n2)c1)N1CCCCC1 : 5858, -6, 6, 1.5, -1, -8, 6

(continued)
SMILES	Bead autofluor	Mtb hypoxia inh	Mtb hypoxia inh growth	RN4220 kill	Sa ugtP lethal	PrP UTR inh	BJeLR viability
Cc1ccc(S(=O)(=O)NN2C(=O)/C(=C/c3cccnc3)SC2=S)cc1	3600	4	4	27	6	-7	-16
Cc1ccc(Cn2ccc(NC(=O)c3nn(C)cc3Cl)n2)cc1	4377	.	.	0.2	-2	-36	-6
CCOc1ccccc1C1C(C(N)=O)=C(C)Nc2nc(CCCO)nn21 (configuration not stated)	4425	.	.	0.7	2	-6	-3
N#Cc1nnn(-c2ccc(Cl)cc2)c1N	4618	10	10	4.4	10	-7	-4
Cc1cc2c(cc1S(=O)(=O)N1CCCC1)n(C)c(=O)c(=O)n2C	6366	.	.	3.8	-2	-29	-4
C=CCc1cc(Cl)ccc1OCCCn1ccnc1	3183	24	31	-0.2	1	-17	0
Cc1noc(C)c1COc1ccc(C(=O)OCC(=O)N2CC3(C)CC2CC(C)(C)C3)cc1 (configuration not stated)	4764	-3	1	-8.3	-1	-6	.
CCN(CC)c1ccc2cc(C(=O)NCc3ccc(F)cc3)c(=N)oc2c1	11232	.	.	.	.	-15	7
O=C(Cn1c(=O)oc2cc(S(=O)(=O)N3CCCC3)ccc21)N1CCN(c2ccccc2)CC1	4144	6	3	4.0	11	4	4
COc1ccc(C2C=CCN(C(=O)C3CCCC3)C(C)C(=O)N2Cc2ccc(F)cc2)cc1 (configuration not stated)	.	10	9	5.1	-6	.	.

Just Mtb hypoxia inh, RN4220 kill and PrP UTR inh, for some of the entries so far:
structure,Mtb hypoxia inh,RN4220 kill,PrP UTR inh
CCN(CC)c1ccc2cc(C(=O)NCc3ccc(F)cc3)c(=N)oc2c1,.,.,-15
Cc1noc(C)c1COc1ccc(C(=O)OCC(=O)N2CC3(C)CC2CC(C)(C)C3)cc1 (configuration not stated),-3,-8.3,-6

For convenience, part of the list above:
SMILES	Bead autofluor	Mtb hypoxia inh	Mtb hypoxia inh growth	RN4220 kill	Sa ugtP lethal	PrP UTR inh	BJeLR viability
N#Cc1nnn(-c2ccc(Cl)cc2)c1N	4618	10	10	4.4	10	-7	-4
Cc1cc2c(cc1S(=O)(=O)N1CCCC1)n(C)c(=O)c(=O)n2C	6366	.	.	3.8	-2	-29	-4
C=CCc1cc(Cl)ccc1OCCCn1ccnc1	3183	24	31	-0.2	1	-17	0

Next part.
SMILES	Bead autofluor	Mtb hypoxia inh	Mtb hypoxia inh growth	RN4220 kill	Sa ugtP lethal	PrP UTR inh	BJeLR viability
CCOC(=O)C1(Cc2ccc(Cl)cc2)CCN(Cc2cnc(N)nc2)CC1	4612	5	5	5.6	1	-39	-2
O=C(O)C1CC=CCC1C(=O)Nc1ccccc1C(=O)N1CCN(c2ccccc2)CC1 (configuration not stated)	3553	.	.	-2.5	9	-21	-10
CCOc1ccc(NS(=O)(=O)c2cc(C(=O)NCC3CCCO3)ccc2Cl)cc1 (configuration not stated)	4696	-4	0	-6.0	4	-23	-1
O=C(COc1ccccc1)Nc1nccs1	8086	4	-1	6.3	1	-128	1
COc1ccc(CNC(=O)C2CCCN2C(=O)NCc2ccccc2)cc1 (configuration not stated)	3465	11	4	3.2	4	4	-4
N#Cc1ccccc1NC(=O)COC(=O)CN1C(=O)C2CCCCC2C1=O (configuration not stated)	3878	-5	3	-0.6	-5	3	.
CCOC(=O)c1c(C)n(CC(O)CN2CCOCC2)c2cc(Br)c(OC)cc12 (configuration not stated)	4364	-4	11	3.3	0	-8	-13
NC1=NCC(Cc2ccccc2)N1CCc1cc(C(F)(F)F)cc(C(F)(F)F)c1 (configuration not stated)	.	19	24	-16	-1	.	.
CCOC(=O)CCNCc1ccc(OC)c(OC)c1	3341	12	4	4.9	-2	-6	14
O=C(O)C=CC(=O)Nc1ccc(NC(=O)c2ccccc2)c(Cl)c1	.	9	0	3.8	-4	.	.
COc1ccc(S(=O)(=O)N2CCN(C(=O)N3CCOCC3)C2C)cc1 (configuration not stated)	3490	4	3	2.4	8	-28	-2
COc1ccc(NC(=O)COC(=O)CNS(=O)(=O)c2ccc(F)c(F)c2F)cc1OC	2116	.	.	3.2	-1	-5	2
CCOc1ccc(S(=O)(=O)N2CCCC(C(=O)NCc3ccncc3)C2)cc1Cl (configuration not stated)	3276	0	1	-0.9	-3	-6	0
CCOc1c(Cl)cc(C(=O)Nc2ccccc2C(=O)O)cc1Cl	19009*	6	5	66	63	-45	7
O=C(CSc1nnc(CNc2cccc(C(F)(F)F)c2)n1Cc1ccco1)NCc1ccco1	.	15	10	-5.4	16	-3	-6
Nc1nnc(SCC(=O)Nc2ccc(Cl)c(C(=O)O)c2)s1	2040	-4	1	-0.9	-1	-27	7
O=C(NCc1ccc(-c2csnn2)cc1)C1CC1	3978	-6	6	1.3	-2	-19	-6
CN(Cc1ccccc1)C(=O)COC(=O)CCC(=O)c1ccc(Cl)cc1	2959	12	6	1.8	4	-15	.
CCOc1ccc(NC(=O)CSc2ccc(-c3cccnc3)nn2)cc1	6354	0	-6	1.7	2	-80	-2
Cc1cccc(N=c2c([N+](=O)[O-])nn(-c3ccc(Cl)cc3)n2O)c1	5084	0	3	-3.8	4	-25	13
CCOC(=O)Cc1nnc(NC(=O)CSc2nnc3c4ccccc4n(C)c3n2)s1	7009	6	3	3.2	9	-20	-2
CN1CCN(C(=O)CCc2nc3ccccc3n2-c2ccccc2)CC1	6743	0	-5	-0.7	0	-32	2
COc1ccc(OC)c(C2C3CN(C(C)C)CC=C3C(C#N)=C(N)C2(C#N)C#N)c1 (configuration not stated)	5415	.	.	2.8	0	-11	3
O=C(CC1NCCN(Cc2ccccc2)C1=O)Nc1ccc(Cl)cc1 (configuration not stated)	5537	3	10	0.7	0	-11	0
Cc1ccc(C(=O)NC2CCS(=O)(=O)C2)cc1S(=O)(=O)N1CCOCC1 (configuration not stated)	8759	11	1	5.7	15	-13	-14
Cn1cc([N+](=O)[O-])c(C(=O)Nc2ccn(Cc3c(F)c(F)cc(F)c3F)n2)n1	23100*	-11	6	-4.3	-9	-12	5
O=C(Cc1ccccc1)NC(Nc1cccc2ccccc12)C(Cl)(Cl)Cl (configuration not stated)	2123	.	.	-6.5	-4	-5	1
Cc1cccn2c(=O)c3cc(C(=O)NCCCN4CCCC4=O)n(C)c3nc12	6811	-1	-5	-0.6	12	-26	-9
COc1ccc(NC(=O)c2cc3ccccc3cc2OC)cc1	4387	0	16	-2.5	-4	-65	-10
Fc1ccc(CNc2nc(-c3cccnc3)nc3ccccc23)cc1	6252	-8	4	-4.7	-24	-3	-3
Cc1onc(-c2ccccc2)c1C(=O)OCC(=O)NC(=O)c1ccccc1	5476	-3	-7	0.9	7	-19	-1
Cc1ccc(/C=N/NC(=O)C2(O)c3ccccc3-c3ccccc32)o1	2093	.	.	.	.	-20	-4
O=C(CON=Cc1ccc(OC(F)F)cc1)NCc1ccco1	.	12	3	4.8	7	.	.
Cn1c(SCC(=O)NC2CCCC2)nc2c(c1=O)SCC2	4962	-1	-7	2.9	12	-39	-3
